# HSD17B inh: blocks hydroxysteroid 17-beta dehydrogenase activity; Q99714; recombinant HSD17B10, NADH fluorescence kinetic; many of its hits are not listed in these tables; Potency, µM (highest dose often 57.1 µM), for inactives: at the highest dose activity change, negative = inhibition, usual class: inhibitors; 75,000 tested, 7.6% active; active = well fitted inhibition curve with a large enough effect; inconclusive = small, poorly fitted or top-dose-only effect; inactive = no such curve, though single readings can be large or run the other way;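 also: the protocol describes HADH2 (HSD17B10) and not the HSD17B4 of the title; nearly all actives have a fitted effect of over 70% in size; most hits overshoot -100% by far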
#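 20 nM HADH2, pH 9.0 Tris/Tween; cpd preinc 15 min RT; start w/ 1 mM NAD+ + 90 uM b-hydroxybutyryl-CoA; kinetic fluor ex360/em450 q30s x 4 min; delta last-first.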
# Numbers without * were called inactive; ? = inconclusive; & = joins results of further samples; [ ] = dose if it differs, or a comment. % is scaled to controls: 0 for no effect and ±100 for the full control effect; potency is read from the fitted curve at half-maximal effect. A portion of the library (hit frequency here may not be typical).
smiles	HSD17B inh
COc1ccc(N2CCN(C(c3cc4ccc(C)cc4[nH]c3=O)c3nnnn3C3CCCC3)CC2)cc1 (centres undefined)	-0.7%
O=C(Nc1cccnc1)Nc1ccccc1Cl	2.4%
CCCNC(=O)CS(=O)(=O)Cc1nc(-c2cccc(OC)c2)oc1C	-1.9%
Cc1cccc(CNc2cc(-c3cccc(C#N)c3)ncn2)c1	?
CCOc1ccc(NCc2nnc(SCC(=O)Nc3cc(C)on3)n2-c2ccc(OC)cc2)cc1	-6.0%
Cc1ccc2nc(-c3ccccc3)cn2c1	31.6µM*
CN1CCN(C(=O)Nc2cccc3ccccc23)CC1	25.1µM*
Cn1c(=O)c2c(nc(NCCCN3CCOCC3)n2Cc2ccc(Cl)cc2)n(C)c1=O	3.4%
O=C(Nc1nc(-c2ccccn2)cs1)c1ccc(Cl)s1	-11.5%
COCCn1c(SCc2csc(-c3ccccc3)n2)nc2ccccc21	-14.4%
COc1cc(C2CC(=O)c3c([nH]c(C(=O)OCCOC(C)C)c3C)C2)cc(OC)c1OC (centres undefined)	-7.3%
O=C1Nc2ccccc2C1(O)Cc1ccncc1 (centres undefined)	1.7%
O=C1C2CCCN2C(c2ccc(F)cc2)N1c1nccs1 (centres undefined)	2.8%
Cc1ccc2[nH]c(=O)c(CN(CCc3ccccc3)C(=O)N3CCOCC3)cc2c1	-23.3%
COc1cccc2sc(N(C)c3ccccc3)nc12	-10.4%
Cc1cc(C)cc(NC(=O)c2cc(S(=O)(=O)NCc3ccco3)ccc2F)c1	-12.6%
COc1ccc(Cc2nc(-c3ccc(Br)cc3)no2)cc1	-2.6%
O=C(NC1CCCCCC1)C1CCN(S(=O)(=O)c2ccccc2)CC1	5.0%
O=C(O)c1cccc(-n2nnnc2SCc2ccccn2)c1	11.0%
CC(=O)Nc1ccc(NS(=O)(=O)c2ccc(Cl)c(C(=O)O)c2)cc1	13.8%
Cc1ccccc1Cc1c(C)nc2c(C(=O)NCc3ccco3)cnn2c1C	31.6µM*
COc1ccc(OC)c(-n2cnc3cc(C(=O)O)ccc32)c1	-7.1%
CCC(C)Sc1nnc(Cc2cc(=O)[nH]c(=O)[nH]2)n1-c1ccc(F)cc1 (centres undefined)	7.5%
CC(C)Cn1c(N)c(C(=O)COC(=O)c2cc(-c3ccco3)nc3ccccc23)c(=O)n(C)c1=O	15.8µM*
CCOCCCn1c(SCC(=O)NC(C)(C)C)nc2ccccc2c1=O	6.2%

# 2 entries picked at random from those above, as already listed:
smiles	HSD17B inh
CC(C)Cn1c(N)c(C(=O)COC(=O)c2cc(-c3ccco3)nc3ccccc23)c(=O)n(C)c1=O	15.8µM*
Cc1ccc2nc(-c3ccccc3)cn2c1	31.6µM*

# Next section:
smiles	HSD17B inh
Cc1ccc2cc(CN(CC3CCCO3)S(=O)(=O)c3ccc4c(c3)OCCO4)c(=O)[nH]c2c1C (centres undefined)	-18.8%
CC(=O)N1CCC2(CC1)CCN(c1ccc(-c3ccccc3)cc1)CC2	10µM*
Cc1noc(C)c1-c1nccc(N(C)C)n1	5.6%
C=CCn1c(=N)n(CC(O)COc2ccc(OC)cc2)c2ccccc21 (centres undefined)	2.2%
COc1ccc(Cn2nnnc2CN(Cc2cc3cc(C)ccc3[nH]c2=O)C2CCCC2)cc1	7.9%
CCOC(=O)c1ccc(NC2OC(=O)c3ccccc32)cc1 (centres undefined)	0.4%
OCC12COC(c3ccccc3)N1C(c1ccccc1)OC2 (centres undefined)	-8.6%
O=C(C1CCCO1)N1CCN(Cc2nc3ccccc3c(=O)[nH]2)CC1 (centres undefined)	2.8%
N#Cc1c(NC(=O)CN2CCN(C(=O)c3ccco3)CC2)sc2c1CCCCC2	-2.5%
CCOC(=O)CSc1nc2c(sc(=S)n2Cc2ccco2)c(=O)n1-c1ccc(F)cc1	9.7%
CCC(Sc1nc2n[nH]c(C)c2c(=N)n1-c1ccc(C)c(Cl)c1)C(=O)N1CCOCC1 (centres undefined)	?
Cc1c(C#N)c(N=CN(C)C)c(C(=O)c2ccccc2)n1-c1ccccc1	-6.8%
COc1ccc(C(=O)N2CCC[C@@]3(CCN(Cc4ccc(C#N)cc4)C3)C2)cc1	3.8%
CCOC(=O)N1CCC(Nc2c(NCCCOC)c(=O)c2=O)CC1	0.9%
O=C(NCc1ccc(N2CCCC2=O)cc1)NC1CCCCC1	3.6%
Cc1nc2cnc(N3CCN(C)CC3)nc2n(CCc2ccccc2)c1=O	31.6µM*
CCOC(=O)c1cc2c(ccn2C)n1CC(=O)N1CCC(Cc2ccccc2)CC1	-10.0%
Cc1cc(C)n(-c2ccc(C(=O)Nc3nnc(C4CC4)s3)cc2)n1	-7.0%
CCCN(CCC)CCCNS(=O)(=O)c1ccc2c(c1)oc(=O)n2C	16.6%
CN[C@]1(C)[C@@H]2CC[C@@H](C2)C1(C)C	-6.2%
O=S(=O)(NCc1cccnc1)c1cccs1	6.9%
COc1ccc(/C=C/NC(=O)Cc2ccc(OC)c(OC)c2)cc1	1.4%&-1.9%[11.4 µM]
COc1cccc(N(C(=O)c2cccs2)c2nc3ccccc3s2)c1	?
Nc1nc(N2CCCCC2)nc(N(c2ccccc2)c2ccccc2)n1	6.3%
Cc1cc(=O)[nH]c(N2CCN(C(c3ccccc3)c3ccccc3)CC2)n1	5.0%

# Continued:
smiles	HSD17B inh
C=CCn1c(SCc2nc(N)nc(N(C)C)n2)nnc1-c1cccnc1	11.3%
CCCOc1ccc2ccccc2c1/C=N/n1c(C)nnc1-n1nc(C)cc1C	0.5%
COc1ccccc1-c1cc(C(=O)NCCCn2ccnc2)no1	?
Cc1cnc(C(=O)Nc2ccccc2-c2ccc(C)o2)cn1	-2.2%
CCCc1cc(C(=O)NCc2cccs2)no1	6.3%
COc1ccccc1NC1=NC2(CCCC2)N=C(N)N1	-3.2%
N#Cc1nc(-c2ccco2)oc1N1CCN(c2cccc(Cl)c2)CC1	31.6µM*
Clc1ccc(N2CCN(c3ncnc4c3oc3ccccc34)CC2)cc1	?
CC/C(=C\C(=O)c1cccnc1)Nc1ccc(C)c(C)c1	-3.1%
CCc1cccc2c(C#N)cn(CCOc3ccccc3OC)c12	6.2%
CC(C)COC(=O)OCN1C(=O)CN(CCN2CC(=O)N(COC(=O)OCC(C)C)C(=O)C2)CC1=O	6.2%
COC(=O)c1ccc(C(=O)OC)c(NC(=O)c2ocnc2C)c1	-4.4%
O=C(Nc1ccc2c(c1)OCCO2)C1CCC1	-7.1%
O=C(CSc1nnc(-c2ccco2)o1)NC1CC2CCC1C2 (centres undefined)	7.2%
O=C(NCCC(=O)N1CCNC1=O)OCc1ccccc1	2.8%
COc1ccc(-c2cnn(-c3ccccc3)c2N)cc1OC	0.7%
Cc1ccnc(NC(=O)CN(C)S(=O)(=O)c2cccc3nsnc23)c1	9.3%
COc1cccc(C(c2nnnn2Cc2ccccc2)N2CCN(C(=O)c3ccco3)CC2)c1OC (centres undefined)	-11.1%
CN1C(CC(=O)c2ccccc2)CCCC1CC(O)c1ccccc1 (centres undefined)	1.0%
CC(=O)Cc1nsc(NC(=O)c2c(-c3ccccc3Cl)noc2C)n1	8.0%
COc1cccc(-c2nccc(NCc3ccc(OC)cc3OC)n2)c1	3.7%
N#C/C(=C\c1ccc(O)c(O)c1)C(=O)NCCCCc1ccccc1	-87.5%
CCCCn1nnnc1NCc1cc(OC)c(OC)cc1OC	-3.3%
COc1cccc(OCc2nc3ccccc3c(=O)n2N)c1	-3.9%
CCOC(=O)N1CCC2(CC1)C(C#N)=C(N)Oc1n[nH]c(CSc3ccc(C)cc3)c12	-6.0%

# Further compounds
mol	HSD17B inh
COc1ccccc1C(=O)NCCCN1CCCC1=O	6.8%
O=C1OC(=O)c2ccccc21	4.1%
C=CCn1cnc2c(c1=O)c1nc3ccccc3nc1n2/N=C/c1cccc(OC)c1OC	5.0%
O=C(c1oc(=O)c2ccccc2c1-c1ccccc1)N1CCN(C2CCCCC2)CC1	-2.7%
NC(=O)c1cc(Cc2ccccc2)sc1NC(=O)c1ccco1	?
CCCNC(=O)C1CCN(c2nc(C)cc(C)n2)CC1	31.6µM*
COc1ccc(NC(=S)Nc2ccccc2)cc1	-1.7%[11.4 µM]
O=C(c1ccccc1NS(=O)(=O)c1cccs1)N1CCCC1	-0.7%
Cc1nnc(SC(C)C(=O)Nc2ccc(S(=O)(=O)N3CCCCC3)cc2)s1 (centres undefined)	8.6%
Cc1cc(NC(=O)CN2CCCC2c2nc3ccccc3s2)no1 (centres undefined)	-4.5%
Cn1cccc1C(=O)Nc1nc(-c2ccccn2)cs1	-13.2%
COC(=O)C/C=C\[C@@H](C)[C@@H](/C=N\O[C@@H]1O[C@H](COC(C)=O)[C@H](OC(C)=O)[C@H](OC(C)=O)[C@H]1OC(C)=O)OC	-0.3%[11.4 µM]
CCN(CC)C(=O)c1cn(C)c(=O)c2cc(OC)c(OC)cc12	-22.6%
CC(=O)C1=C(C)Nc2ncnn2C1c1ccc(Cl)cc1Cl (centres undefined)	-0.8%
COC(=O)c1ccccc1NC(=O)CSc1nnc(-c2ccoc2C)n1C	-0.4%
Cn1c(C(=O)Nc2ccc3c(c2)OCCO3)cc2sccc21	-12.2%
COc1ccc(OC)c(C(=O)CSc2nnc(Cc3cccs3)n2C)c1	-12.2%
Cc1noc(C(=O)N2CC3(C)CC2CC(C)(C)C3)c1Cl (centres undefined)	1.0%
O=S(=O)(c1cccs1)N1CCN(CC(O)COC2CCCc3ccccc32)CC1 (centres undefined)	-3.2%
COc1ccccc1-c1c(C#N)c(SCC(=O)N2CCCC2)nc(C)c1C(N)=O	-7.3%

# Laid out differently: 3 of the compounds above.
O=C(c1oc(=O)c2ccccc2c1-c1ccccc1)N1CCN(C2CCCCC2)CC1
  HSD17B inh: -2.7%
NC(=O)c1cc(Cc2ccccc2)sc1NC(=O)c1ccco1
  HSD17B inh: ?
CCCNC(=O)C1CCN(c2nc(C)cc(C)n2)CC1
  HSD17B inh: 31.6µM*

# Next structures follow.
mol	HSD17B inh
O=C(CCCn1c(=O)c2sccc2n(CC(=O)OCc2ccccc2)c1=O)NCc1ccco1	10.9%
CCOC(=O)CC1=C(C(=O)OCC)C(c2ccc(C)o2)C(C#N)=C(N)O1 (centres undefined)	?
CC(C)=C[C@H]1[C@@H](C(=O)Oc2ccccc2C(C)C)C1(C)C	9.2%[11.4 µM]
COc1cccc(-c2ccc3ncnc(NCCN4CCOCC4)c3c2)c1	-8.0%
CCOC(=O)N1CCC(NC(=O)c2ccc(NC(=O)C3CCCO3)cc2)CC1 (centres undefined)	0.8%
CCc1c(C(=O)Nc2ccncc2)csc1C	-0.6%
O=C(NCc1ccccc1)C1C2C=CC3(CN(Cc4cccnc4)C(=O)C13)O2 (centres undefined)	1.7%
COc1ccc(S(=O)(=O)Nc2nncs2)cc1	-18.8%
COC(=O)c1c(NC(=O)c2cccs2)sc2c1CCC(C)C2 (centres undefined)	-3.7%
O=C(CS(=O)(=O)c1ccccc1)Nc1nc(-c2ccccc2)cs1	-29.0%
Nc1nonc1-c1noc(CCCCCN2C(=O)c3ccccc3C2=O)n1	7.7%
CCOC(=O)CSc1nnc(CNC(=O)c2cccs2)n1-c1cc(C)ccc1C	-9.2%
CCC(=O)Nc1c(-c2ccc(OC)cc2)c(=O)c2ccccc2n1C	-3.3%
COC(=O)/C=C/C(C)=C/C=C/C(C)=C/C=C/C=C(C)/C=C/C=C(C)/C=C/C(=O)O	-22.6%
N#Cc1cnc(Nc2nc3ccccc3o2)nc1-c1ccccc1	75.4%[activator]
COc1ccc(N2C(=O)C3CCCN3C2c2cc(OC)c(OC)cc2OC)cc1 (centres undefined)	3.5%
Cc1cc(C)n(-c2nc3c(c(=O)[nH]c(=O)n3C)n2CC(O)COc2ccccc2)n1 (centres undefined)	-29.1%
COc1ccc(O[C@H]2C=C[C@@H](c3ccccc3)O[C@H]2CO/N=C2/[C@H]3O[C@@H]3[C@@H](O)[C@H]3[C@H]2CCn2c(=O)n(-c4ccccc4)c(=O)n23)cc1	-0.5%[11.4 µM]
CC(C)c1nnc(NC(=O)CCC(=O)N2CCN(Cc3ccccc3)CC2)s1	1.1%
CCc1ccc2[nH]c(=O)c(C(c3nnnn3CC3CCCO3)N3CCN4CCCC4C3)cc2c1 (centres undefined)	?

# Next records
mol	HSD17B inh
O=CNCCCc1nc2ccccc2n1Cc1ccccc1	-2.4%
Cc1nc(C)n(C(=O)N(c2ccccc2)c2ccccc2)n1	4.7%
Cc1c(N(C)C)c(=O)n(-c2ccccc2)n1C	0.7%
Cc1cc(NC(=O)CCC(=O)N(c2cccnc2)C(C(=O)NC2CCCC2)c2ccccc2)no1 (centres undefined)	-0.6%
COc1ccccc1N1CCN(C(CNC(=O)c2ccco2)c2cccnc2)CC1 (centres undefined)	-0.5%
O=C(c1ccc(N2CCCCS2(=O)=O)cc1)N1CCN(c2ccc(N3CCOCC3)nn2)CC1	31.6µM*
CCCCN(CC)Cc1c(C)[nH]c2ccccc2c1=O	-5.7%
CCOC(=O)N1CCc2c(sc(NC(=O)c3ccc(Cl)s3)c2C(N)=O)C1	?
O=S(=O)(NCC(c1cccnc1)N1CCN(c2ccc(F)cc2)CC1)c1ccccc1 (centres undefined)	-5.1%
CO[C@@H]1COC(=O)[C@@H](CCSC)NC(=O)C/C=C\[C@@H](C)COC(=O)CCC[C@H]1C	0.7%[11.4 µM]
O=C(NCCCN1CCCC1=O)c1cncc(Br)c1	11.7%
Cc1cccc(CN2CCN(c3ccccn3)CC2)c1	8.5%
O=C(NCCCc1ccccc1)c1ccccc1O	25.1µM*

# Compound activity: PubChem BioAssay, National Center for Advancing Translational Sciences (NCATS)
